Screening results (PubChem)
Arbovirus inh: antivirals against arbovirus infection; arbovirus infection cell-based antiviral screen; inhibition, % at 10 µM; 200,000 tested, 0.37% active; AID 1251;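 active means inhibition from about 30%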;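 further: bluetongue infection of BSR cells; cell survival read as ATP light after 72 h; 0% = infected wells without compound and 100% = uninfected wells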
Mtb H37Rv: M. tuberculosis H37Rv growth inhibitors, H37Rv strain (AID 1626). M. tuberculosis H37Rv growth inhibition; higher % means a stronger effect. inhibition, % at 10 µM; hits with a dose series show IC50 in µM. 220,000 tested, 0.95% active;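 active means confirmed in a dose series; inconclusive means inhibition above 80% but not taken into the dose series; inactive means below 80% or under 30% at every dose of the series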;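 further: bacteria incubated seven days before Alamar blue readout; 0% = bacteria only wells and 100% = bacteria with antibiotic wells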
Mtb betalactam: beta-lactam sensitization of Mtb H37Rv; M. tuberculosis H37Rv growth with meropenem, percent inhibition; hits of this screen are not shown here; inhibition, % at 25 µM; 330,000 tested, 0.27% active; AID 434955;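 active means about 74% or more and at least 40 points above the plate without the antibiotic, then above 30% in a dose series; inconclusive means first-round hits that could not be retested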;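 further: growth measured after seven days incubation then overnight dye step; 0% = bacteria only wells and 100% = bacteria with antibiotic; twin plates without the antibiotic show which effects depend on it; some results filed as inactive read as strong as hits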
RecA intein inh: inhibitors of M. tuberculosis RecA intein splicing. P9WHJ3. inhibition, %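 (about 9 µM by stock and volumes)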. cell-free RecA intein splicing, fluorescence. 290,000 tested, 0.75% active. AID 2221; in the data active means inhibition above about 30%; inconclusive means no clear call, values can overlap the other calls;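 further: 0% = vehicle wells and 100% = reference inhibitor control wells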
Target sequence (P9WHJ3 whole entry, looked up): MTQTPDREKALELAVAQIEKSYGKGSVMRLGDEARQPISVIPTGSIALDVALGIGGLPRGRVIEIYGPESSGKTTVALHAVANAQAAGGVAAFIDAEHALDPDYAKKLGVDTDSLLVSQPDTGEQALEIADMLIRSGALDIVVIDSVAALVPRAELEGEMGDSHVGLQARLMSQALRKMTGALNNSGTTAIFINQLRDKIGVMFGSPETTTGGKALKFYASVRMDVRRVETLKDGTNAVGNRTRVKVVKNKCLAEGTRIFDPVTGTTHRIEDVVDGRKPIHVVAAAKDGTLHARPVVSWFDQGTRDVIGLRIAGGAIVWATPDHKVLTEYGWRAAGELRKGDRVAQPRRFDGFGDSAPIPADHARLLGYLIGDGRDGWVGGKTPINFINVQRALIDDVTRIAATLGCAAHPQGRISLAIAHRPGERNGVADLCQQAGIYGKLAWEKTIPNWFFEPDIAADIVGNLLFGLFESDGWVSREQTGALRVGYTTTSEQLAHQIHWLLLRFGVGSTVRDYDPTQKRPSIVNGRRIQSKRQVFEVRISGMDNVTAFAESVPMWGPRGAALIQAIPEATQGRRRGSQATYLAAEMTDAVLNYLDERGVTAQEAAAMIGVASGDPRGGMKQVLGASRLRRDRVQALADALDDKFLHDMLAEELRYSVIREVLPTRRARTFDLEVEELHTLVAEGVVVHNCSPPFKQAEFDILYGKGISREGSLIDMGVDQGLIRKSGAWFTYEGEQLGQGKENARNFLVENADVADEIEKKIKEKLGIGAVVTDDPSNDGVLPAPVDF
YopH inh: blocks Yersinia enterocolitica YopH tyrosine phosphatase | 140,000 tested, 0.16% active | inhibition, %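 (about 10 µM by stock and volumes)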 | fluorescence Ex485/Em525;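 active means inhibition of 50% or more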;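 further: controls were vehicle for no effect and minimum signal wells for full effect; inactives centre near -20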
Arbovirus inh repeat: recorded beside Arbovirus inh, whose call it bears; inhibition, %; measured here: 10K subset replicate screen; many hits read low in the repeat;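 first of two repeat runs on a subset; 0% = infected and 100% = uninfected wells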
An asterisk follows results filed as active; ? = inconclusive; / = no result given.

SMILES	Arbovirus inh	Mtb H37Rv	Mtb betalactam	RecA intein inh	YopH inh	others
NS(=O)(=O)c1cccc(NS(=O)(=O)c2cccc(C(F)(F)F)c2)c1	/	/	-8.0	-1.4	/
CCOC(=O)c1sc2cc([N+](=O)[O-])cc(SCC(C)C)c2c1N	0.7	0.5%	?	-0.6	2.3
Nc1nc2ccc(Oc3ccccc3)cc2s1	-12.3	4.0%	/	2.5	-7.7
CCCCc1ccc(NC(=S)NCCc2ccc(F)cc2)cc1	-13.4	?	84.7	4.0	/
Cc1cc(C(=O)CSc2nc(N)cc(=O)[nH]2)ccc1F	/	/	-4.4	1.7	/
CCn1c(SCC(=O)Nc2nnc(C)s2)nnc1-c1ccco1	12.6	-3.0%	/	-1.0	-29.5
Cn1c(=O)n(C)c2cc(C(=O)Nc3ccc(Br)cc3)ccc21	/	/	-2.2	-2.2	/
Cc1cccc(OC(=O)CCN2C(=O)C3C4C=CC(C5CC45)C3C2=O)c1C (stereo not drawn)	11.8	38.2%	79.5	-1.5	/
Cc1cc(C)n(CCc2nc(-c3ccc(C(C)(C)C)cc3)cs2)n1	-11.6	18.3%	10.9	14.2	-10.4
Cc1oc2c(c1C(=O)NCc1cc(C(=O)O)co1)CCCC2	2.7	-9.5%	-14.0	0.4	-47.0
Clc1cccc(Cl)c1Cn1c(-c2cccnc2Cl)nc2ccccc21	-1.3	5.5%	-1.5	4.9	-13.4
O=CNCCCc1nc2ccccc2n1Cc1cccc2ccccc12	2.2	10.8%	-1.1	5.1	-5.3
Cc1ccc(C(=O)NC(=S)Nc2nc(-c3cccc([N+](=O)[O-])c3)cs2)c(Cl)c1	-16.9	0.5%	-3.4	-2.1	/
CCCCCC(=O)Nc1cc2[nH]c(=O)cc(COC)c2cc1C	2.6	-6.7%	2.7	-2.0	-9.2
CCCCN(CCCC)CC(O)COc1ccc(Br)cc1 (stereo not drawn)	/	11.5%	-5.6	-15.1	/
C=CCOC(=O)C1C(=O)CC(C)(O)C(C(=O)OCC=C)C1c1ccc(OCC)cc1 (stereo not drawn)	2.2	6.2%	-0.5	-0.8	5.9
NNC(=O)c1ccc(COc2ccccc2)cc1	-9.3	11.8%	50.2	3.3	-18.9
c1ccc(-c2nc(C3CCCCC3)no2)cc1	-2.7	3.5%	-8.2	0.9	-35.2
O=[N+]([O-])c1cc(/C=N\O)ccc1Oc1ccc(F)cc1	19.1	7.5%	7.1	1.0	/
CCc1nnc(SCc2ccc(OC)c(Br)c2)n1N	-0.1	-7.0%	-5.0	0.9	-30.8	Arbovirus inh repeat=0.0
Cc1cc(Nc2cccc(F)c2)nc(NCc2ccccc2)n1	-4.7	?	99.0	27.2	-17.0
COc1ccc(C)cc1NC(=O)CSc1nnc(-c2ccc(OC)c(OC)c2)n1N	1.0	-4.7%	?	-5.3	-25.2	Arbovirus inh repeat=3.8
Cc1[nH]c2ccccc2c1/C=C/c1nc2ccccc2c(=O)n1CCO	-3.9	18.1%	1.5	-3.4	/
CN(C)CCCN(C(=O)CCc1ccccc1)c1nc2ccc(Br)cc2s1	-24.9	22.5µM*	95.0	1.7	/
CCCCn1nnnc1NCc1ccc(N2CCCC2)cc1	-12.0	3.2%	-0.8	-9.0	27.4
CCO[C@H]1OC(C(=O)N2CCN(Cc3ccc4c(c3)OCO4)CC2)=C[C@@H](c2ccccc2)[C@@H]1CCCO	3.4	-6.8%	-8.8	-1.0	/
CCC(C)(C)NC(=O)C(c1ccc(OC)cc1)N(C(=O)CCC(=O)Nc1cc(C)on1)c1ccc(F)cc1 (stereo not drawn)	/	/	5.0	2.8	/
CCOC(=O)C1(Cc2cccc(OC)c2)CCCN(Cc2ccc(NC(C)=O)cc2)C1 (stereo not drawn)	4.7	-3.8%	-3.1	1.0	/
CC(C)c1nnc(NC(=O)COc2ccccc2[N+](=O)[O-])s1	/	-3.6%	-0.4	-1.3	/
CSCC[C@H](NC(=O)Cc1ccc(Cl)cc1)C(=O)N1CCC2(CC1)NCCc1[nH]cnc12	/	/	5.2	2.6	/
COc1ccc(N2C(=O)C(=O)/C(=C(/O)c3ccc(C)cc3)C2c2cccnc2)cc1 (stereo not drawn)	1.2	-0.9%	1.4	0.3	-16.8
NS(=O)(=O)c1cccc(NC(=O)COC(=O)Cc2ccc(Cl)cc2)c1	12.6	-2.7%	-0.7	1.8	/
COc1ccc(/C=C/C(=O)OCC(=O)c2c(N)n(C)c(=O)n(C)c2=O)cc1	-3.6	6.3%	4.3	-0.6	-20.8
Cc1ccc(C(=O)NCC(=O)OCC(=O)c2c(N)n(C)c(=O)n(C)c2=O)s1	1.6	/	-10.1	-1.0	-0.4
CS(=O)(=O)N1CCc2ccccc2C1	5.6	-20.7%	-8.7	0.8	-18.3
CC(C)c1ccc(NC(=O)NC2CCCCC2)cc1	0.2	6.27µM*	99.8	2.1	4.4
CSc1ccccc1OCc1cc(C(=O)N2CCN(c3ncccn3)CC2)no1	/	/	4.6	4.0	/
COc1ccc(CNCc2ccc3c(c2)OCO3)c(OC)c1OC	/	/	1.6	-2.3	/
COc1ccc(S(=O)(=O)N2CCN(C(=O)CN3C(=O)NC4(CCCC4)C3=O)CC2)cc1	/	/	-21.8	-3.4	/
CCCCNCCCOc1ccc(C)cc1Br	-10.4	-3.7%	5.5	1.3	/
O=c1oc2ccccc2n1Cc1ccccc1F	/	/	-4.8	-1.8	/
O=C(CSC1=Nc2ccccc2C2=NC(CC(=O)NCc3ccco3)C(=O)N12)NCC1CCCO1 (stereo not drawn)	4.0	-8.8%	-10.9	6.8	12.6
OCCCNC(=S)Nc1ccc2nccnc2c1	2.3	-5.7%	-3.2	-4.7	/
COc1ccc(NCC(=O)Nc2ccc(Cl)cc2C)c(OC)c1	-12.2	27.4µM*	77.7	0.2	-4.7
COc1ccc(OC2CCN(S(=O)(=O)c3cccc(F)c3)CC2)cc1	/	/	-7.2	5.9	/
CCCCn1cnc2c1c(=O)n(C)c(=O)n2C	1.1	7.3%	2.2	0.8	-29.5
N#CC1(Cc2ccc([N+](=O)[O-])cc2)c2ccccc2C=CN1C(=O)c1ccccc1 (stereo not drawn)	1.2	-3.3%	23.3	0.9	-16.6
Cc1nc([N+](=O)[O-])c(N2CCN(C)CC2)n1Cc1ccccc1	7.1	-12.4%	-8.4	-1.8	17.5
COCCNC(=O)CN(C(=O)CCC(=O)Nc1ccccn1)c1ccc(F)cc1	7.4	4.6%	-8.7	7.8	-11.3
O=C1CC(N2CCN(c3nc4ccccc4s3)CC2)C(=O)N1c1ccc(F)cc1 (stereo not drawn)	1.4	-1.9%	-0.5	2.7	5.6	Arbovirus inh repeat=4.3
Further entries:
SMILES	Arbovirus inh	Mtb H37Rv	Mtb betalactam	RecA intein inh	YopH inh	others
O=C(Cn1ncc(Cl)c(Cl)c1=O)N1CCN(S(=O)(=O)c2ccc3ccccc3c2)CC1	-33.7	-4.6%	28.6	10.8	-18.4
CCNC(=O)COC(=O)c1ccc(-c2nc3ccccc3s2)s1	-4.5	7.63µM*	99.0	-4.0	/
COc1ccc(OC(=O)C2CC(=O)N(c3ccc(C)cc3)C2)cc1 (stereo not drawn)	-6.2	-4.4%	-7.3	/	/
Cc1ccc(S(=O)(=O)CC2CSc3nnc(C)c(=O)n32)cc1 (stereo not drawn)	-1.2	-6.5%	0.3	0.1	31.1
Cc1ccc(NC(=O)c2c(-c3ccccc3)noc2C)nc1	-1.2	5.3%	-0.3	-2.9	-29.8
O=C(c1ccc(Cl)nc1)N1CCc2ccccc2C1	0.8	8.2%	-6.2	-104.4	-15.2
Cc1ccc(OCCn2cnc3c(N)ncnc32)cc1	0.3	-15.1%	-2.4	1.1	1.1
O=C(CN1C(=O)CCSc2ccccc21)Nc1ccc2c(c1)OCO2	1.7	-6.5%	-3.3	0.6	-16.5
O=C(Nc1ccccc1)c1cc([N+](=O)[O-])ccc1N1CCNCC1	0.0	2.6%	1.7	/	/
CC1CCN(C(=O)Cn2nnc(-c3ccc(N)cc3)n2)CC1	/	/	-3.7	1.0	/
CN(C)c1ccc(C(CC(=O)c2ccccc2)C2CCCCC2=O)cc1 (stereo not drawn)	-5.1	16.2%	5.5	-1.1	-7.5
Cc1cc(Cl)ccc1OCc1nc(-c2ccc(O)cc2)n[nH]1	-12.9	-4.8%	-6.7	5.5	-18.1
Cc1c(C(=O)NCCc2ccc3c(c2)OCCO3)oc2ccccc12	6.4	10.7%	-4.4	7.3	3.1
CCC(C)(C(=O)NC1CCCC1)N(C(=O)CC1NC(=O)NC1=O)c1ccc(C)cc1 (stereo not drawn)	6.9	-12.2%	-8.0	0.6	-10.4
COc1cccc(C(=O)NCc2cccnc2)c1	-7.2	-9.4%	-0.1	-2.3	-22.6
O=C(NC1CCN(Cc2ccccc2)CC1)C1COc2ccccc2O1 (stereo not drawn)	7.1	5.2%	-8.8	0.3	-45.7
O=C(CCN1C(=O)c2ccccc2C1=O)Oc1ccc2ccccc2c1	19.4	?	90.2	5.1	-4.8
Cc1nccn1-c1ccc(C(F)(F)F)cc1NC=O	-6.2	-6.5%	-7.8	-2.2	-39.6
CCOc1cc(C)c(S(=O)(=O)Nc2ccc(Cl)cn2)cc1C	1.9	-0.2%	2.3	-2.5	-36.3
CN(C)/C=N/C1=C(C#N)C(c2ccc(Br)cc2)c2ccc3ccccc3c2O1 (stereo not drawn)	/	/	36.1	6.1	/
COc1ccc(N2C(=O)CC(N3CCN(S(=O)(=O)c4c(F)cccc4F)CC3)C2=O)cc1OC (stereo not drawn)	-1.1	-8.4%	-11.4	-0.9	-31.6
CN1CCc2c(C#N)c(N3CCCCC3)nc(NCc3ccccc3)c2C1	-34.1	-1.8%	-8.9	/	-25.0
Cc1ccc(C(=O)NCCSc2ccc(Cl)cc2)cc1S(=O)(=O)Nc1ccccc1	-24.8	11.6%	34.3	5.9	-29.9
CC1CC(=O)N(c2ccc(NCCc3ccc(O)cc3)c([N+](=O)[O-])c2)C1=O (stereo not drawn)	0.7	2.6%	0.3	0.5	/

Molecules above that contain a Cl atom (ten):
SMILES	Arbovirus inh	Mtb H37Rv	Mtb betalactam	RecA intein inh	YopH inh	others
Clc1cccc(Cl)c1Cn1c(-c2cccnc2Cl)nc2ccccc21	-1.3	5.5%	-1.5	4.9	-13.4
Cc1ccc(C(=O)NC(=S)Nc2nc(-c3cccc([N+](=O)[O-])c3)cs2)c(Cl)c1	-16.9	0.5%	-3.4	-2.1	/
CSCC[C@H](NC(=O)Cc1ccc(Cl)cc1)C(=O)N1CCC2(CC1)NCCc1[nH]cnc12	/	/	5.2	2.6	/
NS(=O)(=O)c1cccc(NC(=O)COC(=O)Cc2ccc(Cl)cc2)c1	12.6	-2.7%	-0.7	1.8	/
COc1ccc(NCC(=O)Nc2ccc(Cl)cc2C)c(OC)c1	-12.2	27.4µM*	77.7	0.2	-4.7
O=C(Cn1ncc(Cl)c(Cl)c1=O)N1CCN(S(=O)(=O)c2ccc3ccccc3c2)CC1	-33.7	-4.6%	28.6	10.8	-18.4
O=C(c1ccc(Cl)nc1)N1CCc2ccccc2C1	0.8	8.2%	-6.2	-104.4	-15.2
Cc1cc(Cl)ccc1OCc1nc(-c2ccc(O)cc2)n[nH]1	-12.9	-4.8%	-6.7	5.5	-18.1
CCOc1cc(C)c(S(=O)(=O)Nc2ccc(Cl)cn2)cc1C	1.9	-0.2%	2.3	-2.5	-36.3
Cc1ccc(C(=O)NCCSc2ccc(Cl)cc2)cc1S(=O)(=O)Nc1ccccc1	-24.8	11.6%	34.3	5.9	-29.9

Some of the compounds tested. The share of hits here may be higher or lower than overall.
